Vaccinia mCherry = vaccinia inhibition (mCherry reporter) | Vaccinia virus mCherry reporter infection, fluorescence; about a quarter of the inactives have no number | Potency, µM (titrated, usually from 36.5 µM), for inactives: at the top dose activity change, negative = inhibition, actives largely listed as inhibitors | actives 0.63% (n = 310,000); active = well fitted inhibition curve with a large enough effect; inconclusive = small, poorly fitted or top-dose-only effect; inactive = no such curve, though single readings can be large or run the other way; tested in A549 cells; note: nearly all actives have a fitted effect of over 35% in size; inactives centre near -10
VACV Venus inh = inhibitors of vaccinia virus (Venus reporter); Vaccinia virus Venus reporter expression, fluorescence; Potency, µM (titrated, usually from 36.5 µM), inactives show at the highest dose activity change, negative = inhibition, usual class: inhibitors; actives 0.46% (n = 330,000); AID 720580; active means well fitted inhibition curve with a large enough effect; inconclusive means small, poorly fitted or top-dose-only effect; inactive means no such curve, though single readings can be large or run the other way; tested in A549 cells; note: nearly all actives have a fitted effect of over 30% in size; inactives centre near -10
Numbers without * were called inactive; i = inactive; ? = inconclusive; . = no result given; & = joins results of further samples; [ ] = dose if it differs, or a comment. % is set by controls: 0 for no effect and ±100 for the full control effect; potency is the fitted concentration of half-maximal effect.

SMILES | Vaccinia mCherry | VACV Venus inh
CCc1ccc(OCc2ccccc2C(=O)Nc2ccc3nc(C)cc(N)c3c2)cc1 | ? | ?
COC(=O)CCCC1=CC2=CC(=O)C(C)(OC(=O)c3cccs3)C(=O)C2=CN1CCc1c[nH]c2ccccc12 (stereo not drawn) | -6% | 0%
Cc1cc(C(=O)OCC(=O)Nc2ccccc2[N+](=O)[O-])c2ccccc2n1 | -9% | -10%
Cc1coc2c1C(=O)C(=O)c1c-2ccc2c(C)cccc12 | ? | 7.1µM*
Cc1cccc(-c2noc(CNC(=O)c3ccc(C)cc3C)n2)c1 | -5% | -21%
COc1cc(OC)nc(NC(=O)COC(=O)c2cccc(Cl)c2)n1 | -6% | -10%
Cc1nc(SCC(=O)N(CC(C)C)C2CCS(=O)(=O)C2)c2c(C)c(C)sc2n1 (stereo not drawn) | 10% | -19%
Cc1ccc(CNC(=O)CCn2nc(-c3ccc(Cl)cc3)ccc2=O)cc1 | -25% | -16%
CCOCCCn1c(=N)c(C(=O)NCC2CCCO2)cc2c(=O)n3cc(C)ccc3nc21 (stereo not drawn) | 1% | -9%
Cc1cn2c(-c3ccncc3)nnc2s1 | -9% | -5%
CCOC(=O)C1CCCN(S(=O)(=O)c2cc(-c3cc(C)no3)ccc2OC)C1 (stereo not drawn) | -8% | 10%
O=C(COc1ccc(F)cc1)Nc1nnc(S(=O)(=O)N2CCCC2)s1 | -12% | -15%&-9%
COc1cccc(OC)c1C(=O)Nc1cccc(-c2nc3cc(C)cc(C)c3o2)c1 | ? | ?
CN(C)S(=O)(=O)N(CC(=O)Nc1ccc(S(=O)(=O)N2CCCC2)cc1)c1ccccc1 | -32% | -17%
COc1cc(CN(C(=O)c2ccccc2Br)c2ccccn2)cc(OC)c1OC | i | -2%
O=C(O)C1C2C=CC(C2)C1C(=O)NCc1cccs1 (stereo not drawn) | 9% | 6%
COc1cc2c(cc1NC(=O)CSc1cccc[n+]1[O-])oc1ccccc12 | i | -10%
O=C(NCCCN1CCCC1=O)C1CCCO1 (stereo not drawn) | -9% | -13%
Cc1ccc(Nc2nnc(SC/C(O)=C(\C#N)c3nc4ccccc4[nH]3)s2)c(C)c1 | -9% | -3%
CN(C)C(=O)c1coc2nc3ccccc3nc12 | 5% | 31%[activator]
CNc1oc(-c2cccs2)nc1C#N | -26% | -1%
Cc1cc(-c2ccnc(-n3ncc(C(=O)NCCc4cccnc4)c3C)n2)c(C)s1 | -13% | -27%
CCN(CC)C(=O)C1=C(C)N(Cc2ccccc2)C(=O)C(CC(=O)NCCCCc2ccccc2)C1 (stereo not drawn) | ? | -26%
CCOc1ccc(CCNc2nc3ccccc3n3cnnc23)cc1OCC | -16% | -6%
Cc1c(NC(=O)CN(c2ccc(F)cc2)S(=O)(=O)c2ccccc2)c(=O)n(-c2ccccc2)n1C | -10% | -8%
CCN(CC)S(=O)(=O)c1ccc(C(=O)NCC2CCCCC2)cc1 | -2% | -12%
O=C(O)CCC(=O)Nc1cccc(-c2csc(-c3ccccc3)n2)c1 | i | -14%
CC(=O)c1c[nH]c(C(=O)Nc2ccc(N3CCCCCC3)cc2)c1 | -26% | -7%
C=C1c2ccccc2NC(=O)N1c1ccc(C)cc1 | . | -14%
Cc1ccc(-c2csc3n[nH]c(=S)n23)cc1 | -14% | -14%&-13%
O=C(CNC(=O)c1cccs1)NCC(=O)OCc1ccccc1Cl | i | -1%
COc1ccc(C(C(=O)NCc2ccccc2)n2c(=O)c(-c3cc4ccccc4[nH]3)nc3ccccc32)cc1 (stereo not drawn) | ? | ?
CC(CN1CCOCC1)OC(=O)Cc1ccc(Cl)cc1 (stereo not drawn) | 4% | 3%
Cc1cc(C(=O)N/N=C/c2sc(N3CCOCC3)nc2-c2ccccc2)c(C)o1 | -19% | -10%
OCc1ccnc2oc3ccccc3c12 | i | -14%
Cn1ccs/c1=N\S(=O)(=O)c1ccc(F)cc1 | -1% | 2%
COc1ccc(OC)c(NC(=O)COC(=O)C2CCC2)c1 | -10% | -4%
COc1ccc(N2CCN(CCNC(=O)c3ccc4c(c3)[nH]c(=S)n3c5ccccc5nc43)CC2)cc1 | -1% | 10%
O=C(COC(=O)CCNS(=O)(=O)c1ccc(Cl)cc1)Nc1ccccc1OC(F)F | i | -14%
O=C(Cn1cnc([N+](=O)[O-])n1)NCCc1ccccc1 | -8% | -1%

25 neighbouring compounds out of the list so far:
SMILES | Vaccinia mCherry | VACV Venus inh
COc1cccc(OC)c1C(=O)Nc1cccc(-c2nc3cc(C)cc(C)c3o2)c1 | ? | ?
CN(C)S(=O)(=O)N(CC(=O)Nc1ccc(S(=O)(=O)N2CCCC2)cc1)c1ccccc1 | -32% | -17%
COc1cc(CN(C(=O)c2ccccc2Br)c2ccccn2)cc(OC)c1OC | i | -2%
O=C(O)C1C2C=CC(C2)C1C(=O)NCc1cccs1 (stereo not drawn) | 9% | 6%
COc1cc2c(cc1NC(=O)CSc1cccc[n+]1[O-])oc1ccccc12 | i | -10%
O=C(NCCCN1CCCC1=O)C1CCCO1 (stereo not drawn) | -9% | -13%
Cc1ccc(Nc2nnc(SC/C(O)=C(\C#N)c3nc4ccccc4[nH]3)s2)c(C)c1 | -9% | -3%
CN(C)C(=O)c1coc2nc3ccccc3nc12 | 5% | 31%[activator]
CNc1oc(-c2cccs2)nc1C#N | -26% | -1%
Cc1cc(-c2ccnc(-n3ncc(C(=O)NCCc4cccnc4)c3C)n2)c(C)s1 | -13% | -27%
CCN(CC)C(=O)C1=C(C)N(Cc2ccccc2)C(=O)C(CC(=O)NCCCCc2ccccc2)C1 (stereo not drawn) | ? | -26%
CCOc1ccc(CCNc2nc3ccccc3n3cnnc23)cc1OCC | -16% | -6%
Cc1c(NC(=O)CN(c2ccc(F)cc2)S(=O)(=O)c2ccccc2)c(=O)n(-c2ccccc2)n1C | -10% | -8%
CCN(CC)S(=O)(=O)c1ccc(C(=O)NCC2CCCCC2)cc1 | -2% | -12%
O=C(O)CCC(=O)Nc1cccc(-c2csc(-c3ccccc3)n2)c1 | i | -14%
CC(=O)c1c[nH]c(C(=O)Nc2ccc(N3CCCCCC3)cc2)c1 | -26% | -7%
C=C1c2ccccc2NC(=O)N1c1ccc(C)cc1 | . | -14%
Cc1ccc(-c2csc3n[nH]c(=S)n23)cc1 | -14% | -14%&-13%
O=C(CNC(=O)c1cccs1)NCC(=O)OCc1ccccc1Cl | i | -1%
COc1ccc(C(C(=O)NCc2ccccc2)n2c(=O)c(-c3cc4ccccc4[nH]3)nc3ccccc32)cc1 (stereo not drawn) | ? | ?
CC(CN1CCOCC1)OC(=O)Cc1ccc(Cl)cc1 (stereo not drawn) | 4% | 3%
Cc1cc(C(=O)N/N=C/c2sc(N3CCOCC3)nc2-c2ccccc2)c(C)o1 | -19% | -10%
OCc1ccnc2oc3ccccc3c12 | i | -14%
Cn1ccs/c1=N\S(=O)(=O)c1ccc(F)cc1 | -1% | 2%
COc1ccc(OC)c(NC(=O)COC(=O)C2CCC2)c1 | -10% | -4%

Compound profiles, as listed above. Order of screens: Vaccinia mCherry	VACV Venus inh
`COc1ccc(C(C(=O)NCc2ccccc2)n2c(=O)c(-c3cc4ccccc4[nH]3)nc3ccccc32)cc1` (stereo not drawn) is listed as ?	?
`CCOc1ccc(CCNc2nc3ccccc3n3cnnc23)cc1OCC` is listed as -16%	-6%

(listing goes on)
SMILES | Vaccinia mCherry | VACV Venus inh
CS(=O)(=O)c1ccc2nc(NC(=O)C3CC(=O)N(c4ccc(F)cc4)C3)sc2c1 (stereo not drawn) | -6% | -1%
O=C(Cn1cnnn1)Nc1cccc([N+](=O)[O-])c1 | i | -2%
COc1ccc(CCNC(=O)C2CCC(=O)N(CC3CCCCC3)C2)cc1 (stereo not drawn) | -14% | -11%
CCOC(=O)c1c(NC(=O)COc2c(C)cc(Cl)cc2Cl)sc2c1CCCC2 | -15% | -15%
COc1ccc2oc(=O)c(C(=O)N3CCN(C(=O)c4ccccc4)CC3)cc2c1 | i | -8%
CCc1cc2c(SCC(=O)N3CCCC3=O)ncnc2s1 | -2% | -26%
O=C(CN1C(=O)c2cccnc2Oc2ccc(Cl)cc21)N1CCCC1 | -14% | -4%
Cc1cc(C)nc(/N=C(/NC(=O)c2ccccc2)Nc2ccccc2)n1 | -11% | -7%
CCS(=O)(=O)Nc1cc(-c2cn3ccc(C)cc3n2)ccc1C | -21% | -10%
COCCNC(=O)C(=O)NNS(=O)(=O)c1ccc2ccccc2c1 | -1% | -6%
CCN1CCN(CC(=O)Nc2c(OC)cccc2OC)CC1 | -8% | -2%
Cc1ccc(Cl)cc1NS(=O)(=O)Cc1ccccc1 | i | -19%
COc1ccc(NC(=O)CN(C)C(=O)CCNS(=O)(=O)c2ccc(Br)cc2)cc1 | -16% | -10%
CN(C)c1ccc(/C=C/c2cc(/C=C/c3ccc(N(C)C)cc3)c3ccccc3n2)cc1 | -13% | 61%[activator]
Brc1cccc(-c2nc(-c3ccncc3)no2)c1 | . | 3%
O=C(O)CCC(=O)N1N=C(c2ccccc2)CC1c1cccs1 (stereo not drawn) | -13% | 0%
COc1ccc(S(=O)(=O)N(CC(=O)N2CCN(c3ccccc3OC)CC2)c2ccccc2)cc1 | -25% | -27%
COc1cc(OC)c(C(=O)Nc2cccnc2)cc1OC | i | -12%
COc1ccc(/C(N)=N/OC(=O)c2ccc(C)c([N+](=O)[O-])c2)cc1 | . | -8%
COc1ccc(OC)c(-c2ccnc(-n3ncc(C(=O)NC(C)(C)CO)c3C3CC3)n2)c1 | -14% | 0%
COc1cc(OC)cc(C(=O)NCC(=O)Nc2ccc(C)c(Cl)c2)c1 | i | -2%
CCCn1c(=N)n(CC(O)COc2ccc(C)cc2)c2ccccc21 (stereo not drawn) | -14% | -20%
COc1ccc(NC(=O)CSc2nc(-c3cccc(C)c3)[nH]c2-c2ccccc2)cc1OC | ? | -28%
O=C(COC(=O)c1cc([N+](=O)[O-])ccc1NCCO)c1ccccc1 | 0% | -7%
CC(C)C(=O)OC1CCS(=O)(=O)c2sccc21 (stereo not drawn) | -14% | -4%

Assay outcomes as filed in PubChem BioAssay.
